LANA-H2B inh: blocks KSHV LANA binding to histone H2A/H2B. Q9QR71. AID 2629. inhibition, % (concentration not given with the values). cell-free LANA-H2A/H2B peptide, fluorescence polarization. 320,000 compounds, 0.6% hits; in the data active = inhibition mostly above about 10%, no sharp cut-off; inactive = mostly below about 6.7%;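 note: stock transfer was 7.5 nL into about 10 µL; 0% = median of vehicle wells and 100% = median of positive control wells; one replicate is shown; the record names a cut of 25% in any replicate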
T cruzi inh: blocks replication of Trypanosoma cruzi; T. cruzi beta-gal in NIH3T3, luminescence, 90 h; inhibition, % (concentration not given with the values); AID 1885; 300,000 compounds, 1.4% hits;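 active = mean inhibition across valid replicates above about 55%, limit read from the data; inconclusive = mean below that limit but half or more replicates reach it; inactive = mean below it, under half of replicates reach it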;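 note: signal also drops with host cell toxicity which is not excluded here; 0% = plate median of DMSO wells and 100% = zero luminescence signal; higher percent means less beta-gal luminescence so fewer parasites; stock transfer was 50 nL into about 50 µL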
UCH37 DUB inh: inhibitors of human deubiquitinating enzyme UCH37; inhibition, % (no concentration beside the values); 330,000 compounds, 0.33% hits; purified proteasome/UCH37, Ub-AMC cleavage fluorescence;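 active = mean of two replicates above 20%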;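 note: 0% = compound-free wells with enzyme and 100% = wells lacking proteasome; stock transfer was 100 nL into about 20 µL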
Target sequence (Q9Y5K5 whole entry, looked up): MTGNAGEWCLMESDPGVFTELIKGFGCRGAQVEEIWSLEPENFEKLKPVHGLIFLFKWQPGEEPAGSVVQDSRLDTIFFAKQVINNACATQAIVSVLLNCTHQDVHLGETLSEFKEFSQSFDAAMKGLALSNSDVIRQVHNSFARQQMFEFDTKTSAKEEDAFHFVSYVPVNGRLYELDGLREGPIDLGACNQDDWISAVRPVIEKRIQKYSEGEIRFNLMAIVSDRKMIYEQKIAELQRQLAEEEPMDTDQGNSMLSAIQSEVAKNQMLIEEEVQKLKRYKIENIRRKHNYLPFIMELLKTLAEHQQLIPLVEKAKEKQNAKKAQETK
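Material: Human UCH37 enzyme supplied as purified proteasome complex | Schedule: 30 min preincubation with enzyme, 25 min cleavage at room temperature | Detection: AMC fluorescence 355/460 nm | Measure: % inhibition of Ub-AMC cleavage fluorescence | Controls: Wells without proteasome as full block, compound-free enzyme plus substrate as uninhibited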
RanGTP-Imp inh: disruptors of Ran-importin-beta complex formation – biochemical, FRET, CFP-Ran, YFP-importin-beta, homogeneous, primary screen; AID 2216; inhibition, % (concentration not given with the values); 300,000 compounds, 1.1% hits; cell-free CFP-Ran/YFP-importin-beta FRET ratio;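 active = most replicates above 15%; inconclusive = exactly half above 15%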;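 note: 0% = DMSO wells and 100% = Ran loaded with GDP instead of GTP; wells of about 40 µL received 100 nL stock; the first replicate is given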
Calb FLC: affects C. albicans growth with fluconazole; growth inhibition, % (no concentration beside the values); 300,000 compounds, 0.57% hits; AID 1979; C. albicans CaCi-2 (fluconazole-resistant clinical isolate) + fluconazole, Alamar Blue growth, 48 h;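 active = most replicates above 75%; inconclusive = exactly half above 75%; inactive = most below 75%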;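 note: all wells also contain fluconazole at 8 µg/ml as a sub-toxic cotreatment; 0% = median of DMSO wells and 100% = median of geldanamycin control wells; wells of about 8 µL received 7.5 nL stock; the first replicate is given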
Beta cell apopt: beta cell apoptosis inhibition. INS-1E cytokine-induced death, ATP luminescence, 48 h; percent of positive-control rescue, neutral wells zero. protection from apoptosis, % (no concentration beside the values). 300,000 compounds, 0.8% hits. AID 435005;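 active = all replicates at 75% or more, or half of them and the mean; inconclusive = half reach 75% but not the mean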;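 note: 0% = cytokine-treated negative control wells and 100% = positive control rescue; higher means more ATP so stronger rescue from cytokine killing; wells of about 40 µL received 100 nL stock; the first replicate is given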
A1 inh: inhibitors of the anti-apoptotic protein A1, read as caspase activation. MEF A1-2A-BIM cells, Caspase-Glo 3/7 luminescence, 3 h; percent of clofoctol response, vehicle zero. caspase activation, % (concentration not given with the values). 330,000 compounds, 0.066% hits. AID 2462;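 active = over half of replicate activation scores above 10%, or exactly half above 10 with the replicate mean above 10; inconclusive = replicate mean below 10 yet half the replicates above 10; inactive = over half of replicates below 10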;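 note: wells of about 30 µL received 50 nL stock; many hits fall short of the cut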
Beta2AR agonist: activates human beta-2 adrenergic receptor causing internalization; P07550; Am2.2-beta2AR cells, FAP receptor internalization, flow cytometry; reference of the scale not given here; response, % (test concentration not listed); 340,000 compounds, 0.43% hits; AID 504454;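 active = response above a set limit, near 3 SD of response in nonfluorescent compounds, cut at about 42% in these data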;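 note: stock transfer was 100 nL into about 11 µL; a reference agonist was the positive control; negative values mostly stem from fluorescent compounds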
Target sequence (P07550 whole entry, looked up): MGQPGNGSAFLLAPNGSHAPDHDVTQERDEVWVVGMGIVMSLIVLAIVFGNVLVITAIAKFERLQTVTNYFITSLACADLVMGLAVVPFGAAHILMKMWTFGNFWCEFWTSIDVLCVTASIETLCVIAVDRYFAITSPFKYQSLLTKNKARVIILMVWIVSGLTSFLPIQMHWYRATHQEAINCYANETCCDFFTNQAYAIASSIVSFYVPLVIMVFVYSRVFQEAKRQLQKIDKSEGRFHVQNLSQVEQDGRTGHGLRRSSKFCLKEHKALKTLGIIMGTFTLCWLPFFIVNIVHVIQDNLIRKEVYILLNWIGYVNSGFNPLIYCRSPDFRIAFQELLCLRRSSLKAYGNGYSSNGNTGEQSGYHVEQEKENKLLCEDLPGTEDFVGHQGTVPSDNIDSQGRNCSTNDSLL
* marks the source's active call; other numbers are inactive results; ? = inconclusive; . = no result given.

Every second line gives: LANA-H2B inh, T cruzi inh, UCH37 DUB inh, RanGTP-Imp inh, Calb FLC, Beta cell apopt, A1 inh, Beta2AR agonist
- COC(=O)C1(C)Cc2cc(OC(C)=O)c(OC(C)=O)cc2N1 (configuration not stated)
→ -1.0, 27, ., 0.7, 1, -9, 0.1, .
- COc1ccc(N2CCN(C(=O)COC(=O)c3ccc(-n4nc(C)cc4C)cc3)CC2)cc1
→ 7.0, ., 2.2, ., ., 1, 0.1, -1
- O=C(c1noc2c1CCCC2)N1CCc2c([nH]c3ccccc23)C1c1ccccn1 (configuration not stated)
→ -1.7, -3, 2.9, -2.2, ?, 0, -0.2, 5
- CCN(CC)C1CCN(C(=O)c2cc(COc3ccccc3SC)on2)C1 (configuration not stated)
→ -0.6, 36, 5.9, 1.5, -1, -6, ?, -9
- Cc1cnc(C(=O)OC(C)C(=O)Nc2ccc3c(c2)OCCO3)cn1 (configuration not stated)
→ -11, -2, ., 6.5, -3, ., 0.2, 6
- CC(=O)Nc1nc2c(s1)C(=O)NCC(C)(C)C2
→ 2.2, 0, 1.0, -2.5, 0, 1, 0.0, -3
- N#C/C(=C\c1cccn1-c1ccccc1)C(=O)NC1CCCCC1
→ 1.5, 9, 0.9, 0.3, 3, 1, -0.1, -15
- O=C(C1CCN(c2nnc(N3CCCC3=O)s2)CC1)N1CCN(c2cccc(C(F)(F)F)c2)CC1
→ 0.0, -5, 1.2, 4.0, 7, 11, 0.2, 1
- CCC/C=C(\CCC)C(NC(=O)c1ccc(C(F)(F)F)cc1)c1ccccc1 (configuration not stated)
→ -0.6, 4, 1.9, 5.3, -12, 15, -0.5, .
- O=C1c2ccccc2NC2(CCCCC2)N1N=C1CCCCC1
→ 0.0, 5, -201, 1.5, 2, -4, 0.3, 11
- Cc1ccc(C(NC(=O)N2CCCC2)C(Cl)(Cl)Cl)cc1F (configuration not stated)
→ 4.3, -8, 3.4, ?, 9, 1, -0.1, 1
- CC1CCN(C(=O)Cn2c(=O)oc3ccccc32)CC1
→ 7.7, -5, 0.3, -2.9, -18, -4, 2.1, -707
- Cc1ccc(-c2ccc(CCC(=O)O)n2Cc2ccco2)cc1
→ -1.3, 5, -13, 6.3, 11, 3, -0.3, 6
- CCNC(=O)CSc1nc2cc([N+](=O)[O-])ccc2n1-c1cccc(C(F)(F)F)c1
→ -3.9, -15, 5.1, 1.1, 0, 3, 0.7, -17
- CN(C)C(=O)CSc1cnc2ccccc2n1
→ -0.7, -5, 2.8, 2.9, -5, -5, 0.0, 7
- COc1ccc(/C=C(/C#N)C(=O)NC2CCCCC2)cc1Br
→ -0.7, -4, 2.0, -0.1, -13, 5, 0.3, 6
- CCN(C(=O)c1ccc(C)c(Br)c1)c1ccccc1
→ 8.2, 27, 2.3, 0.0, 6, 1, 0.3, 4
- O=C(O)c1ccccc1C(=O)NCCCCCCNC(=O)c1ccccc1C(=O)O
→ 2.4, -17, 1.0, 3.7, -11, ., 0.1, -15
- Cc1cccc(OCC(=O)N(C)CCc2ccccn2)c1
→ 3.3, -19, 3.5, 5.1, 11, -10, -0.1, -5
- CCOC(=O)COc1c(Br)cc(C2NC(=O)NC(C)=C2C(C)=O)cc1OC (configuration not stated)
→ 1.6, -13, 0.5, -1.4, 4, -4, -0.2, 8
- O=C(C[C@@H]1C/C=C\CCC(=O)OC[C@@H]2CCCN2C1=O)N[C@@H](CO)Cc1ccccc1
→ -1.1, ., 1.1, ., ., 0, -0.8, 1
- COc1ccccc1C(=O)NCCC(=O)NCc1ccncc1
→ -0.5, ., 3.8, ., ., -4, 0.1, -5
- NCCCn1c(C(=O)c2cc(Cl)c(N)c(Cl)c2)c2ccc([N+](=O)[O-])cc2[n+]1[O-]
→ 2.7, 24, 1.7, -4.6, 61, 87*, 0.5, 8
- CCC(=O)NC(Nc1ncc(C)s1)(C(=O)OC)C(F)(F)F (configuration not stated)
→ -2.2, 9, 2.6, -2.5, 2, -1, -0.8, 10
- O=C(CSc1ccccc1)NC1CCCCCC1
→ 1.7, -5, -0.4, -3.5, -11, -2, 0.3, 1
- CCOc1ccc2nc(NC(=O)c3ccc(OCC4CCCO4)cc3)sc2c1 (configuration not stated)
→ -10.0, 45, -43, -1.3, -3, 47, -2.6, 8
- CCOC(=O)N1CCN(c2c(-c3ccccc3)c3cc(Cl)ccc3[nH]c2=O)CC1
→ -1.2, 42, -50, 4.5, 1, -2, -1.3, 3
- COc1ccc(CNC(=O)c2csc(Cc3ccc(Cl)cc3)n2)cc1
→ -3.3, 10, 4.7, -4.5, 0, -6, 2.1, 8
- CN(c1cccc(NC(=O)c2ccc(Cl)c(S(=O)(=O)Nc3ccccc3)c2)c1)S(C)(=O)=O
→ 3.9, -12, 1.9, 1.7, ?, 4, 1.0, 8
- COc1ccc(CNC(N)=O)cc1OC
→ 1.1, -20, 0.8, 2.4, 3, -12, 1.0, 0
- c1ccc(COCCC2CO2)cc1 (configuration not stated)
→ 3.9, -13, ., 8.4, -4, ., -0.1, .
- CCOc1ccc(CNC(=O)c2ccccc2NC(=O)C2=CSCCO2)cc1
→ 4.8, 41, -2.1, -0.2, -4, ., 0.1, -1
- O=C1C=C(c2cccc(CO)c2)C[C@@H](c2ccc(Cl)cc2)C1
→ -6.9, ., 5.9, ., ., -3, 0.6, -12
- Cc1ccc(CC2C(=O)N(c3ccc(F)cc3)C(=O)C2C)cc1 (configuration not stated)
→ 2.3, -18, 4.0, 6.0, -1, 3, 0.6, -2
- CC(C)OC(=O)C(C(=O)C(F)(F)F)c1cc(NS(=O)(=O)c2ccc3ccccc3c2)c2ccccc2c1O (configuration not stated)
→ ., -28, 3.3, -0.8, 26, 9, 0.2, 18
- CCN(C(=O)COC(=O)/C(C#N)=C/c1ccc(OC)cc1)C1CCS(=O)(=O)C1 (configuration not stated)
→ -5.8, -9, 8.2, 1.3, 4, -2, 1.3, 0
- COC(=O)c1nnn(-c2nonc2N)c1CSc1nc2ccccc2o1
→ -1.8, 23, 1.8, 6.9, 4, -8, 1.1, 12
- O=C(N/N=C/c1ccc(F)cc1)c1cc[n+]([O-])cc1
→ -0.1, -8, ., -3.3, 8, 3, -0.1, 3
- CCOC(=O)C1=C(C)NC(=O)NC1c1ccc(F)cc1 (configuration not stated)
→ 3.4, -5, 4.6, ?, -8, -7, 2.2, 9
- Cc1c[n+]([O-])n(-c2ccc(C(=O)O)cc2)n1
→ ., -17, 1.6, -1.1, -22, -6, 0.4, -1
- CCOC(=O)c1c(S(=O)(=O)Nc2ccc(CN3CCC(C)CC3)cc2)c(C)n(C)c1C
→ 0.1, 26, 1.9, 0.5, -4, -3, -0.2, 1
- COC(=O)c1nc(-c2ccccc2)oc1N1CCOCC1
→ 1.1, 7, -101, -0.8, 15, -5, -0.2, -6
- NNC(=O)c1sccc1OCc1ccc(Cl)cc1Cl
→ -1.8, 36, 1.7, -2.2, 7, ., 0.6, 7
- CC(=O)c1ccc(NC(=O)c2ccc(S(=O)(=O)N3CCCC3)cc2)cc1
→ -4.7, 3, 2.7, 7.0, 1, 0, 0.2, 5
- Cn1c(COc2ccc(Br)cc2)nnc1SC1CCc2ccccc2C1=O (configuration not stated)
→ 1.4, 28, 4.0, -1.5, -1, -6, 0.5, -2
- Cc1nn(C)cc1CNC(=O)c1cccc(F)c1
→ 0.9, 6, -1.4, 1.1, -2, -2, -0.1, -2
- CCC(C)(C)n1nnnc1C(c1cc2cc(C)ccc2[nH]c1=O)N1CCCC1 (configuration not stated)
→ -10, 1, -15, 1.1, -5, -8, 0.4, -2
- COc1cccc(CSc2nnc(-c3ccco3)n2C)c1
→ 4.0, 17, -1.5, ?, -14, -2, -0.2, -12
- Cc1cc(N2CCN(C)CC2)n2nc(-c3ccc(Cl)cc3)nc2n1
→ 1.8, 25, -1.5, 4.2, 7, -5, 0.9, 9
- Cc1cc(=O)oc2c3c(cc(OCC(=O)NCCN4CCOCC4)c12)OC(C)(C)CC3
→ 2.6, 11, -472, 1.3, -2, ., -0.2, -3
- CC1=C(C(=O)NCc2ccc(Cl)cc2)C2(CCC(C)CC2)OC1=O (configuration not stated)
→ 4.4, 7, 0.6, 1.4, -2, -1, 0.4, -8
- Cn1cc(CNCc2ccccc2OCC(O)CN2CCc3ccccc3C2)cn1 (configuration not stated)
→ 0.3, 12, 2.5, 7.2, -6, -1, 0.8, -9
- COC(=O)Nc1nn(-c2ccc(OC)cc2)c(=O)c(C#N)c1C
→ -4.1, -16, 8.8, 5.7, -5, 1, 1.1, -17
- CCCCN(CCCC)S(=O)(=O)c1ccc(NC(=O)Cc2cccs2)cc1
→ 2.1, 19, 2.5, 1.5, ?, -7, -1.4, 51*
- O=C(COc1ccc([N+](=O)[O-])cc1Cl)N1CCOCC1
→ 0.2, -4, 3.3, 3.6, ., -9, 0.0, 3
- Cc1ccc(S(=O)(=O)CCSc2nc(C)cc(C)c2C#N)cc1
→ 2.9, 14, 1.5, 1.6, 12, -2, 0.4, -12
- COc1cc(OC)c(OC)cc1/C=N/Nc1nc2ccccc2[nH]1
→ 6.3, -25, ., 0.8, -7, -3, 0.4, 10
- COc1ccc([N+](=O)[O-])cc1NC(=O)Cc1ccccc1Cl
→ -0.9, -9, 6.1, -3.5, -1, 3, 0.3, -11
- CC1(OC(=O)c2cccs2)C(=O)C=C2C=C3CCCN3C=C2C1=O (configuration not stated)
→ 3.3, -14, 5.1, ?, -3, 0, 0.5, -6
- COc1cc2ccccc2cc1C(=O)Nc1ccccc1C
→ -1.0, 13, -4.4, 2.4, 4, ., -0.3, 36

A different layout for some results above.
SMILES | LANA-H2B inh | T cruzi inh | UCH37 DUB inh | RanGTP-Imp inh | Calb FLC | Beta cell apopt | A1 inh | Beta2AR agonist
COc1ccc(CNC(=O)c2csc(Cc3ccc(Cl)cc3)n2)cc1 | -3.3 | 10 | 4.7 | -4.5 | 0 | -6 | 2.1 | 8
CN(c1cccc(NC(=O)c2ccc(Cl)c(S(=O)(=O)Nc3ccccc3)c2)c1)S(C)(=O)=O | 3.9 | -12 | 1.9 | 1.7 | ? | 4 | 1.0 | 8

Printed as active in Beta2AR agonist (from the list above):
| molecule | LANA-H2B inh | UCH37 DUB inh | RanGTP-Imp inh | Beta2AR agonist |
| --- | --- | --- | --- | --- |
| CCCCN(CCCC)S(=O)(=O)c1ccc(NC(=O)Cc2cccs2)cc1 | 2.1 | 2.5 | 1.5 | 51* |

Next section
Every second line gives: LANA-H2B inh, T cruzi inh, UCH37 DUB inh, RanGTP-Imp inh, Calb FLC, Beta cell apopt, A1 inh, Beta2AR agonist
- CC1CCCCC1NC(=O)Cn1cnc2ccccc2c1=O (configuration not stated)
→ -3.2, 11, -1.6, -0.3, -4, 0, 1.2, 0
- O=C(Nc1ccc(Cl)cc1)N1CCSc2ccccc21
→ 3.4, -10, 2.1, 3.7, -3, -6, -0.9, -4
- Cn1cc([N+](=O)[O-])c(C(=O)Nc2sc3c(c2C#N)CCC3)n1
→ 3.4, -31, 4.3, -1.0, 2, -24, -2.9, -2
- N#Cc1ccccc1NC(=O)CN1CCN(Cc2ccccc2)CC1
→ 0.0, -3, 1.2, 1.5, -7, -2, -0.2, 4
- COc1ccc(CCN(C(=O)COc2ccccc2)c2nc(-c3ccccc3)cs2)cc1OC
→ 0.8, 42, 5.3, 0.0, 8, 6, 0.2, -2
